Source: PubChem (Johns Hopkins Ion Channel Center)
KCNQ2 enhance – potentiators of rat KCNQ2 potassium channel | CHO-K1 KCNQ2, FluxOR thallium flux fluorescence; stronger effect = higher value | Potassium voltage-gated channel subfamily KQT member 2 (Rattus norvegicus), O88943 | 310,000 compounds, 0.54% hits | B-score at 10 µM;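 active = fluorescence ratio B-score at least 3 SD of library B-scores, with initial fluorescence B-score within 3 SD, cut at about 5.3 in these data; same plate scores as AID 2156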;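 also: B-score of peak minus minimum over baseline fluorescence ratio after K+ and Tl+ stimulus; positive B-score means potentiation of KCNQ2 with more thallium influx and brighter signal; only the inactives scoring about 0 or higher are listed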
Target sequence (O88943 whole entry, looked up): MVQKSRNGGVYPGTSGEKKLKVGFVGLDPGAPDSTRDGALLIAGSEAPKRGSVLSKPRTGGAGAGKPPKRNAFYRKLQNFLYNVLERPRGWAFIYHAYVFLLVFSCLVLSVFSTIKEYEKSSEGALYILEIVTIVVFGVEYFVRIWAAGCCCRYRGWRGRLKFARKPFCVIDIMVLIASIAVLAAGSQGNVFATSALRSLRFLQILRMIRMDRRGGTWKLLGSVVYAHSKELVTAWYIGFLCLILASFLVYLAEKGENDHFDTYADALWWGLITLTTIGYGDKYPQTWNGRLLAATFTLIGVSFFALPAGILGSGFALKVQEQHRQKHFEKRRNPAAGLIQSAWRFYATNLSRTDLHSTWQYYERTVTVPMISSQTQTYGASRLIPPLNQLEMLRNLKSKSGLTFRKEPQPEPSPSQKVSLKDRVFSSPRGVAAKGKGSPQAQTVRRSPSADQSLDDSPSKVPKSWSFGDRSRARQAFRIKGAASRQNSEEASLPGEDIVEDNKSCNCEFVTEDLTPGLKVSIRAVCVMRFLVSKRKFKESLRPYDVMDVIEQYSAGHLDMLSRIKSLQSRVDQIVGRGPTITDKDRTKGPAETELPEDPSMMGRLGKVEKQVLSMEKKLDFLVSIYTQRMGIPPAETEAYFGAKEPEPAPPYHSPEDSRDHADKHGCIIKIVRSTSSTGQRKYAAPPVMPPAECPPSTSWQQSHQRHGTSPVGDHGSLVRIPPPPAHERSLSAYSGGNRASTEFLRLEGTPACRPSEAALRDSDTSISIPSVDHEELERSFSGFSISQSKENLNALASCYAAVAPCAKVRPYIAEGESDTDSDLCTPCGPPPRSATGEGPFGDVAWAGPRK
KCNQ2 enhance baseline – second read-out of KCNQ2 enhance, no call of its own (marks repeat the call); B-score; compound at 10 µM; measured here: initial fluorescence intensity artifact check;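 brightness before thallium and not channel activity; 0 = typical well and far values either way flag optical interference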
* marks the source's active call; other numbers are inactive results. These rows are one share of the data; rates above refer to the full screens.

Results for Cc1ccc([C@@H]2[C@@H]3C(=O)N(c4ccccc4)C(=O)[C@@H]3[C@]3(C)C(=O)N(CC4CC4)CC(=O)N23)o1 ?
KCNQ2 enhance: 0.49; KCNQ2 enhance baseline: 0.48

How did CC(=O)Nc1ccc(NC(=O)C(C)Oc2ccc(Cl)cc2Cl)cc1 (stereo not drawn) do in these assays?
KCNQ2 enhance: 0.1; KCNQ2 enhance baseline: -0.01

What do the screens show for `Cc1cc2oc(C(=O)Nc3c(C)n(C)n(-c4ccccc4)c3=O)c(C)c2cc1C`?
KCNQ2 enhance: 1.44; KCNQ2 enhance baseline: -0.56

What do the screens show for `Cc1cc(C)c(C#N)c(SCC(=O)c2cccs2)n1`?
KCNQ2 enhance: 2.34; KCNQ2 enhance baseline: 0.17

How did O=C(CC1Sc2ccccc2NC1=O)Nc1ccccc1[N+](=O)[O-] (stereo not drawn) do in these assays?
KCNQ2 enhance: 2.02; KCNQ2 enhance baseline: 0.19

Results for CCCNC(=S)Nc1ccc(Br)cc1 ?
KCNQ2 enhance: 2.28; KCNQ2 enhance baseline: 1.71

What do the screens show for `CC(=O)c1c(C)nn(C(C)CC(=O)O)c1C` (stereo not drawn)?
KCNQ2 enhance: 0.31; KCNQ2 enhance baseline: 0.28

What do the screens show for `Cc1ccc(S(=O)(=O)N(C)C)cc1NC(=O)COC(=O)/C=C/c1cnc2ccccc2n1`?
KCNQ2 enhance: 0.57; KCNQ2 enhance baseline: 0.27

Results for Cc1occc1C(=O)Nc1ccc(S(=O)(=O)N2CCN(C)CC2)cc1 ?
KCNQ2 enhance: 0.87; KCNQ2 enhance baseline: -2.16

What do the screens show for `O=[N+]([O-])c1cccc(C(=Nc2ccccc2)NO)c1`?
KCNQ2 enhance: 0.04; KCNQ2 enhance baseline: -2.98

How did Cc1ccc(NC(=O)COC(=O)C2CC2(Cl)Cl)cc1C (stereo not drawn) do in these assays?
KCNQ2 enhance: 1.06; KCNQ2 enhance baseline: 0.3

Results for COc1cc(NC(=O)c2cc(C)on2)cc(C(=O)Nc2cccc(C(F)(F)F)c2)c1 ?
KCNQ2 enhance: 1.03; KCNQ2 enhance baseline: 0.95

How did CC(C)CC1(C)NC(=O)NC1=O (stereo not drawn) do in these assays?
KCNQ2 enhance: 0.33; KCNQ2 enhance baseline: -1.05

Results for Cc1c(/C(O)=C2/C(=O)C(=O)N(CCN(C)C)C2c2ccc(C(C)C)cc2)cnn1-c1ccccc1 (stereo not drawn) ?
KCNQ2 enhance: 0.03; KCNQ2 enhance baseline: -0.48

Results for Cc1cc(=O)[nH]c(N2CCCNCC2)n1 ?
KCNQ2 enhance: 1.3; KCNQ2 enhance baseline: -0.58

What do the screens show for `COc1ccc(Br)cc1CN(C)C(=O)c1ccc2c(c1)NC(=O)C(C)S2` (stereo not drawn)?
KCNQ2 enhance: 0.09; KCNQ2 enhance baseline: 0.28

What do the screens show for `COc1ccc(Cl)cc1C(=O)Nn1c(C)nc2ccccc2c1=O`?
KCNQ2 enhance: 1.39; KCNQ2 enhance baseline: 0.76

How did O=C(CCC(=O)c1ccccc1)Nc1cccnc1 do in these assays?
KCNQ2 enhance: 0.12; KCNQ2 enhance baseline: 0.26

How did C/C(=N\NC(=O)Cn1c(C)nc2ccccc21)c1cccs1 do in these assays?
KCNQ2 enhance: 3.32; KCNQ2 enhance baseline: -2.72

How did CCOC(=O)N1CCN(CCC(=O)Nc2ccccc2)CC1 do in these assays?
KCNQ2 enhance: 0.87; KCNQ2 enhance baseline: -0.55

How did CC1CCN(C(=O)CSc2nc3c(cnn3-c3ccccc3)c(=O)[nH]2)CC1 do in these assays?
KCNQ2 enhance: 1.01; KCNQ2 enhance baseline: -0.09

What do the screens show for `O=C(CN1CCOCC1)Nc1c(Cl)cc(Cl)cc1Cl`?
KCNQ2 enhance: 0.54; KCNQ2 enhance baseline: -1.84

How did CCCCC(=O)Nc1c2c(nn1-c1cccc(C)c1C)CS(=O)(=O)C2 do in these assays?
KCNQ2 enhance: 0.83; KCNQ2 enhance baseline: -0.07

How did COc1ccc(OCC(=O)NS(=O)(=O)c2ccccc2)cc1 do in these assays?
KCNQ2 enhance: 0.41; KCNQ2 enhance baseline: 1.56

Results for FC(F)Sc1ccc(NC(=S)NCc2ccccc2)cc1 ?
KCNQ2 enhance: 0.29; KCNQ2 enhance baseline: -3.8

Results for Cc1cccc(N2CCN(C(=O)c3cccc(N4CCCC4=O)c3)CC2)c1C ?
KCNQ2 enhance: 0.18; KCNQ2 enhance baseline: 0.6

How did O=C(C1=C[C@H](c2ccc3c(c2)OCO3)C[C@H](OCc2ccc(CO)cc2)O1)N1CCOCC1 do in these assays?
KCNQ2 enhance: 0.11; KCNQ2 enhance baseline: 0.8

Results for C#CCNC(=O)C1=C[C@@H](C2CC2)C[C@@H](OCc2ccc(CO)cc2)O1 ?
KCNQ2 enhance: 0.66; KCNQ2 enhance baseline: 0.6

How did CCN(CC)C(=S)SCC(=O)Nc1ccc(S(N)(=O)=O)cc1 do in these assays?
KCNQ2 enhance: 1.29; KCNQ2 enhance baseline: -0.19

What do the screens show for `Cc1ccc(C(=O)C(C)OC(=O)Cc2n[nH]c(=O)c3ccccc23)cc1` (stereo not drawn)?
KCNQ2 enhance: 1.18; KCNQ2 enhance baseline: -0.92

What do the screens show for `O=C(OC1CCCCC1)c1cc2ccccc2oc1=O`?
KCNQ2 enhance: 0.26; KCNQ2 enhance baseline: 2.39

What do the screens show for `COc1cccc(C(C(=O)NC(C)(C)C)N(C(=O)CCC(=O)Nc2cc(C)on2)C(C)C)c1OC` (stereo not drawn)?
KCNQ2 enhance: 0.51; KCNQ2 enhance baseline: 2.7

How did CC1CN(C(=O)COC(=O)c2ccc(N)c([N+](=O)[O-])c2)CC(C)O1 (stereo not drawn) do in these assays?
KCNQ2 enhance: 1.17; KCNQ2 enhance baseline: -0.97

How did Cc1nnc(NC(=O)CSc2ccccc2N)s1 do in these assays?
KCNQ2 enhance: 0.8; KCNQ2 enhance baseline: -0.47

Results for COc1ccc(N2CC(C(=O)NCCS(=O)(=O)N3CCN(c4ccccc4)CC3)CC2=O)cc1 (stereo not drawn) ?
KCNQ2 enhance: 0.12; KCNQ2 enhance baseline: -0.48

What do the screens show for `Cn1c(=O)c2c(nc(Cl)n2CC(=O)NC2(C#N)CCCCC2)n(C)c1=O`?
KCNQ2 enhance: 0.13; KCNQ2 enhance baseline: 1.6

Results for O=C1[C@H]2[C@@H](c3ccc(Cl)cc3)N3C(=O)N(c4cccc(F)c4)C(=O)[C@@]3(Cc3ccccc3)[C@H]2C(=O)N1C1CCCCC1 ?
KCNQ2 enhance: 0.49; KCNQ2 enhance baseline: -0.13

Results for COc1ccc(S(=O)(=O)Nc2cccc(C(C)=O)c2)cc1Br ?
KCNQ2 enhance: 1.01; KCNQ2 enhance baseline: -0.67

How did Cc1ccc(S(=O)(=O)Nc2ccccc2F)cc1C(=O)NCCCN1CCCC1=O do in these assays?
KCNQ2 enhance: 1.21; KCNQ2 enhance baseline: -1.93

What do the screens show for `O=C(COc1ccc2c(c1)OCO2)Nc1nncs1`?
KCNQ2 enhance: 0.16; KCNQ2 enhance baseline: 0.11

What do the screens show for `CCN(C(=O)CSc1cc(C)c2ccccc2n1)c1c(N)n(Cc2ccccc2)c(=O)[nH]c1=O`?
KCNQ2 enhance: 0.13; KCNQ2 enhance baseline: 0.34

How did CC(C)C(c1nnnn1Cc1ccc2c(c1)OCO2)N1CCN(C)CC1 (stereo not drawn) do in these assays?
KCNQ2 enhance: 0.47; KCNQ2 enhance baseline: -0.48

Results for Cc1nc(NC(=O)c2ccccc2[N+](=O)[O-])sc1C(=O)N(C)C ?
KCNQ2 enhance: 0.28; KCNQ2 enhance baseline: -0.75

How did O=c1[nH]c(Nc2ccc3c(c2)OCCO3)nnc1Cc1ccccc1 do in these assays?
KCNQ2 enhance: 0.98; KCNQ2 enhance baseline: -0.01

Results for CCc1ccc(CNC(=O)c2ccc(OC3CCN(C(=O)COC)CC3)cc2)nc1 ?
KCNQ2 enhance: 0.1; KCNQ2 enhance baseline: 0.23

How did COc1ccc(NC(=O)Cn2cccc2)cc1Cl do in these assays?
KCNQ2 enhance: 1.43; KCNQ2 enhance baseline: -0.55

Results for C/C(=N\O)c1ccc(Cl)cc1Cl ?
KCNQ2 enhance: 0.01; KCNQ2 enhance baseline: 0.6

What do the screens show for `CC(C)Oc1cccc(-c2nnc(SCC(=O)Nc3ccc4c(c3)OCCO4)n2N)c1`?
KCNQ2 enhance: 1.3; KCNQ2 enhance baseline: -0.69

How did Cc1ccc(C)c(N2CCN(C(=O)C3CCN(c4nnc(N5CCCC5=O)s4)CC3)CC2)c1 do in these assays?
KCNQ2 enhance: 1.98; KCNQ2 enhance baseline: -0.62

Results for CCn1ccnc1CN1CCc2c([nH]c3ccccc23)C1C1CCCCC1 (stereo not drawn) ?
KCNQ2 enhance: 0.54; KCNQ2 enhance baseline: -1.73

What do the screens show for `Cc1nn(CC2CC2)c(=O)n1-c1ccc(Cl)cc1`?
KCNQ2 enhance: 0.65; KCNQ2 enhance baseline: 1.69

How did COc1ccc(N2CCN(C(=O)c3ccc(C)cc3Cl)CC2)cc1 do in these assays?
KCNQ2 enhance: 0.04; KCNQ2 enhance baseline: -1.1

How did CCOc1nc(NC(=O)NS(=O)(=O)Oc2ccccc2Cl)nc(-c2ccccc2)n1 do in these assays?
KCNQ2 enhance: 1.27; KCNQ2 enhance baseline: -0.31

How did COC(=O)/C=C1/SC(=NC(=O)c2ccc(Cl)cc2)NC1=O do in these assays?
KCNQ2 enhance: 0.88; KCNQ2 enhance baseline: -1.01

What do the screens show for `Nc1nc2c(nc(N3CCCCC3)n2[C@@H]2O[C@H](CO)[C@@H](O)[C@H]2O)c(=O)[nH]1`?
KCNQ2 enhance: 1.1; KCNQ2 enhance baseline: -1.07

What do the screens show for `Cc1cc(N2CCOCC2)nc2ccc(NC(=O)CCC(=O)N3CCC(C)CC3)cc12`?
KCNQ2 enhance: 1.98; KCNQ2 enhance baseline: -3.19

Results for Cc1nc(CS(=O)(=O)c2ccccn2)sc1C(=O)NNC(=O)c1ccc(Cl)cc1 ?
KCNQ2 enhance: 0.24; KCNQ2 enhance baseline: -0.88

What do the screens show for `Cc1cc(NC(=O)Cc2ccccc2)no1`?
KCNQ2 enhance: 0.02; KCNQ2 enhance baseline: -1.41

How did CCOC(=O)c1c(N)sn(-c2ccccc2C)c1=S do in these assays?
KCNQ2 enhance: 0.03; KCNQ2 enhance baseline: -0.74

How did O=C(CN1C(=O)CSC1=O)Nc1ccc(N2CCOCC2)cc1 do in these assays?
KCNQ2 enhance: 1.1; KCNQ2 enhance baseline: -1.87

How did CCCCNC(=O)COC(=O)CCC(=O)c1ccc(F)cc1 do in these assays?
KCNQ2 enhance: 0.31; KCNQ2 enhance baseline: -0.81

How did O=C(Cc1ccc(Cl)cc1)Nc1cccc(S(=O)(=O)Nc2ccccc2F)c1 do in these assays?
KCNQ2 enhance: 0.86; KCNQ2 enhance baseline: -0.33

What do the screens show for `Cc1ccccc1OCCSc1nnc(-c2cccnc2)n1N`?
KCNQ2 enhance: 0.31; KCNQ2 enhance baseline: 0.68

What do the screens show for `COc1cc(/C=N/NC(=S)Nc2cccnc2)cc(OC)c1O`?
KCNQ2 enhance: 0.41; KCNQ2 enhance baseline: -1.7

Results for Cn1c(-c2cccc(Br)c2)cnc1NCc1cccnc1 ?
KCNQ2 enhance: 0.72; KCNQ2 enhance baseline: 0.03

What do the screens show for `O=C(NNS(=O)(=O)c1ccccc1)c1cccs1`?
KCNQ2 enhance: 0.9; KCNQ2 enhance baseline: 1.05

Results for Nc1nc(-c2ccccc2)c(-c2ccccc2)s1 ?
KCNQ2 enhance: 0.87; KCNQ2 enhance baseline: 0.76

Results for CC(=O)c1ccc(NC(=O)CO/N=C(\C)c2cccs2)cc1 ?
KCNQ2 enhance: 0.16; KCNQ2 enhance baseline: -0.12

How did CCCN(CC(=O)Nc1ccc(Cl)cc1Cl)C(=O)c1ccc(=O)[nH]c1 do in these assays?
KCNQ2 enhance: 1.28; KCNQ2 enhance baseline: -1.42

Results for CCS(=O)(=O)N1CCC2(CC1)OCCN2S(=O)(=O)c1ccc(C)cc1 ?
KCNQ2 enhance: 0.38; KCNQ2 enhance baseline: 0.03

What do the screens show for `COc1cc(-c2nnc3n2CCCCC3)cc(OC)c1OC`?
KCNQ2 enhance: 0.52; KCNQ2 enhance baseline: -0.29

Results for O=C(Nc1ccccc1C(=O)NCCCN1CCOCC1)c1ccc(F)cc1F ?
KCNQ2 enhance: 0.43; KCNQ2 enhance baseline: -2.36

Ordered by molar mass (ascending): some entries from above
Results for Nc1nc(-c2ccccc2)c(-c2ccccc2)s1 ?
KCNQ2 enhance: 0.87; KCNQ2 enhance baseline: 0.76

What do the screens show for `COc1cc(-c2nnc3n2CCCCC3)cc(OC)c1OC`?
KCNQ2 enhance: 0.52; KCNQ2 enhance baseline: -0.29

How did CCCCNC(=O)COC(=O)CCC(=O)c1ccc(F)cc1 do in these assays?
KCNQ2 enhance: 0.31; KCNQ2 enhance baseline: -0.81

Results for Cn1c(-c2cccc(Br)c2)cnc1NCc1cccnc1 ?
KCNQ2 enhance: 0.72; KCNQ2 enhance baseline: 0.03

How did CCCN(CC(=O)Nc1ccc(Cl)cc1Cl)C(=O)c1ccc(=O)[nH]c1 do in these assays?
KCNQ2 enhance: 1.28; KCNQ2 enhance baseline: -1.42

Results for CCS(=O)(=O)N1CCC2(CC1)OCCN2S(=O)(=O)c1ccc(C)cc1 ?
KCNQ2 enhance: 0.38; KCNQ2 enhance baseline: 0.03

How did O=C(Cc1ccc(Cl)cc1)Nc1cccc(S(=O)(=O)Nc2ccccc2F)c1 do in these assays?
KCNQ2 enhance: 0.86; KCNQ2 enhance baseline: -0.33
